Screening data deposited in PubChem by several laboratories.
HSV replic up – enhancers of HSV replication in host cells, fold increase, host cell viability; maximum fold increase; HSV replication augmentation in cells; 220,000 compounds, 0.005% hits;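 active means peak rise of 1.5-fold or more in the series; inconclusive means self-fluorescent or not available for retest; tested in PC3 cells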;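 further: first round at 10 µM; read as green reporter fluorescence; hits show the peak of a series up to 25 µM; 1 = signal of infected wells without compound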
PKD1 kinase inh – inhibitors of human PKD1 kinase, biochemical, fluorescence polarization; inhibition, %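 (about 10 µM by stock and volumes)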; 200,000 compounds, 0.056% hits; PKD1 kinase fluorescence polarization assay; Serine/threonine-protein kinase D1 (Homo sapiens), Q15139;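 active means inhibition of 50% or more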;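 further: controls were vehicle for no effect and a reference inhibitor for full effect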
GALR2 agonist – GALR2 receptor agonists, primary screen, cell-based; Galanin receptor type 2 (Homo sapiens), O43603; GALR2-expressing cells, agonist activation read-out; activation, %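 (tested at 5 µM)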; 140,000 compounds, 0.48% hits; AID 803, 2007;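 active means above mean plus 3 SD of all compounds, about 5% in these data, not always enough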;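 further: 0% = vehicle buffer wells and 100% = reference agonist at full effect; tested in CHO reporter cells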
Target sequence (O43603 whole entry, looked up): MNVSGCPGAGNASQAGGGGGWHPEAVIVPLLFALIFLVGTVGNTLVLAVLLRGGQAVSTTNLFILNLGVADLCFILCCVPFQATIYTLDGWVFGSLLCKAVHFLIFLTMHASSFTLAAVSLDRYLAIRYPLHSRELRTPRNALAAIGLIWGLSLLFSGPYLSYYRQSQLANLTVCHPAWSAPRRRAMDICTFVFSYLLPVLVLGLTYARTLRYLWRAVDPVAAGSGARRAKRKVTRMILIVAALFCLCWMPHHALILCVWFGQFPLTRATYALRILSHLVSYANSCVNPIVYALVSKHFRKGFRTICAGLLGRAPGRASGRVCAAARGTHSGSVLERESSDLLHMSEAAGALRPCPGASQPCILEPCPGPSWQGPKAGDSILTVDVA
RGS16-Gao HTS – modulators of RGS16 binding to Galphao, primary screen, biochemical, human proteins, multiplexed bead flow cytometry; bead-based flow cytometry RGS16-Galphao binding, fluorescence; actives lie on both sides; binding response (% of control), % at 10 µM; 220,000 compounds, 0.38% hits; AID 1441, 2008;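 active means below 25% or above 175%, edge rows of some plates excepted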;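 further: Galphao activated by GDP with aluminum fluoride before binding; 100% = wells without compound and 0% = beads without RGS; some results beyond the cut were filed as inactive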
Insulin prom inh – inhibitors of insulin promoter-driven GFP, primary screen, imaging, TRM-6 cells (human fetal islet line), eGFP reporter, cell count. reporter expression induced with tamoxifen. 130,000 compounds, 0.9% hits. inhibition, % at 2 µM. AID 1273, 2008;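 active means inhibition above the mean plus 3 SD, with well images judged a real hit on visual review, cut at about 60% in these data, passing the limit was not always enough; inconclusive means inhibition over the cutoff but images rejected on review; inactive means inhibition not above the cutoff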
Insulin prom inh cell count – further read-out of Insulin prom inh, marked with its call; normalized cell count, %; measured here: cell count, toxicity; reference of the scale not given here;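 cells exposed to compound for 48 h; stained nuclei by imaging scaled within each plate; lower means fewer cells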
HSV replic up primary fold – further read-out of HSV replic up, marked with its call; fold increase; compound at 10 µM; measured here: primary screen fold increase 10 uM; tested in PC3 cells;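 GFP signal in the first replicate; 1 = infected wells without compound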
Numbers without * were called inactive; i = inactive; ? = inconclusive; . = not tested or not shown.

SMILES	HSV replic up	HSV replic up primary fold	PKD1 kinase inh	GALR2 agonist	RGS16-Gao HTS	Insulin prom inh	Insulin prom inh cell count
CN(C)C(=O)c1cn(-c2ccccc2)nc1-c1cccc([N+](=O)[O-])c1	i	0.97	-3	.	102	.	.
COc1ccc(CC(=O)N2CCc3cc(OC)c(OC)cc3C2O)cc1OC (configuration not stated)	i	0.75	.	.	103	.	.
CC(=O)c1ccc(N=Nc2ccc(N)cc2)cc1	i	0.9	.	.	98	.	.
CCOCCOC(=O)C1=C(C)NC2=C(C(=O)CC(c3cccs3)C2)C1c1ccsc1 (configuration not stated)	i	1.1	15	-1.3	87	.	.
COc1ccc(Cn2c(C)c(C)c(C#N)c2NC(=O)Nc2cccc(Cl)c2)cc1	?	.	-1	0.2	105	-19	41
Cc1nc2c(s1)sc1ccccc12	i	0.77	-5	-1.6	106	.	.
COc1ccc(C(=O)n2nc(C)cc2C)cc1OC	i	1	-4	-2.1	79	-60	128
Cc1ccc(C(=O)OC2CCCN(C)C2)cc1 (configuration not stated)	i	1	-6	.	103	.	.
CCOC(=O)N1CCN(C(=O)c2ccc3c(=O)n(CCC4=CCCCC4)c(=S)[nH]c3c2)CC1	i	0.82	9	-5.3	104	-7	74
CC(=O)OCCNC(=O)c1cc2ccccc2oc1=O	i	0.93	5	-1.2	96	51	88
C[C@@H](C(=O)NCC1CC1)[C@H]1C[C@]1(C)[C@H](NC(=O)OCc1ccccc1)c1ccccc1	i	1.1	1	-0.3	93	-36	90
O=C(CSc1ccccc1)Nc1ccncc1	i	1	0	-1.2	101	-23	126
O=C(CN1CCCc2ccccc21)N/N=C/c1ccccc1	i	1.2	-5	-1.1	95	.	.
Cc1[nH]c2ccccc2c1C(=O)COC(=O)C(C)C	i	0.94	5	-0.7	101	-37	86
O=C(O)CCc1ccc(-c2ccccc2)n1-c1cccc(O)c1	i	1	-7	-3.2	110	32	95
O=[N+]([O-])c1cc(Cl)ccc1-c1nc(-c2ccccc2)no1	i	1.1	-8	-0.2	112	-21	77
COCCNC(=O)CN(C(=O)CCC(=O)Nc1cc(C)on1)c1ccc(C)cc1C	i	1.1	-5	-2.5	101	32	100
COc1ccnc(Oc2ccc(C)cc2)c1C#N	i	1.1	-3	-1.6	100	3	90
COc1cc2cc(CN(CCCN3CCOCC3)C(=O)Nc3ccc(F)cc3)c(=O)[nH]c2cc1OC	i	0.96	2	.	108	.	.
COc1cc(C(=O)Nc2ccc(-c3nc4cc(C)ccc4o3)c(O)c2)cc(OC)c1OC	i	0.72	-10	0.0	93	-62	84
O=[N+]([O-])c1ccc(N/N=C/c2ccc(OCc3cccc4ccccc34)cc2)nc1	?	.	-2	.	87	-145	135
C#CCn1c(O)c(N=NC(=O)C(O)c2ccccc2)c2ccccc21 (configuration not stated)	i	0.96	.	.	96	.	.
O=C(O)COc1c(-c2ccco2)oc2ccccc2c1=O	i	0.91	7	.	104	-53	98
C/C(Cn1nnc([N+](=O)[O-])n1)=N\NC(=O)c1ccncc1	i	0.92	-6	.	104	-7	124
CC(=O)Cc1nsc(NC(=O)c2cc(-c3ccccc3Cl)oc2C)n1	i	0.89	6	0.9	96	.	.
Following part:
SMILES	HSV replic up	HSV replic up primary fold	PKD1 kinase inh	GALR2 agonist	RGS16-Gao HTS	Insulin prom inh	Insulin prom inh cell count
COC(=O)CNC(=O)C1CCN(C(=O)OCc2ccccc2)CC1	i	0.93	-4	-2.2	106	3	110
Cc1ccc2nsnc2c1NC(=O)c1ccc([N+](=O)[O-])cc1	i	1.1	6	.	103	.	.
O=C(NCCc1ccccc1)C1CCN(C(=O)NCc2ccccc2)CC1	i	0.99	-5	-2.6	105	62	27
CC(C)CC(=O)NS(=O)(=O)c1ccc(N)cc1	i	0.98	0	-1.3	111	-456	12
COc1ccc(NC(=O)Cn2nc(C(F)(F)F)c3c2CCCC3)cc1OC	i	0.89	-7	-2.1	101	-81	119
COc1cc(/C=N/NC(=O)CCN2CCN(Cc3ccccc3)CC2)cc(OC)c1OC	i	0.99	1	-3.1	101	-42	47
CCN1c2cccc3cccc(c23)S1(=O)=O	.	.	11	-0.9	152	13	158
Cn1c(=O)c(=O)n(C)c2cc(S(=O)(=O)N3CC(=O)N(CCc4ccccc4)C(=O)C3)ccc21	i	1	.	.	95	.	.
c1ccc(-c2nc3nonc3nc2-c2ccccc2)cc1	.	.	4	-0.4	100	.	.
COc1ccc(Cl)cc1N1CC(C(=O)Nc2nccs2)CC1=O (configuration not stated)	i	0.92	-4	-2.9	108	6	124
O=C(c1cc2c(s1)-c1ccccc1S(=O)(=O)C2)N1CCCC1	i	0.96	.	.	103	.	.
CCOc1ccc(/C=C/C(=O)C(C(N)=O)=C2SCCS2)cc1	i	0.73	-15	0.6	138	.	.
CCC(CO)[n+]1c(C)cc(/C=C2\Sc3ccccc3N2Cc2ccccc2)cc1C (configuration not stated)	.	.	1	-0.6	99	.	.
O=C(CSc1nnc(Nc2ccccc2)s1)Nc1cccnc1Cl	i	0.94	9	-0.2	100	15	106
C[C@H](NC(N)=O)C(=O)Nc1ccc2c(c1)OCO2	i	0.86	.	.	90	.	.
O=C(C1CCCN(S(=O)(=O)c2cccc3cccnc23)C1)N1CCN(c2ccc(F)cc2)CC1 (configuration not stated)	i	1.2	-2	-0.8	61	.	.
CCOC(=O)c1c(NC(=S)N2CCN(C)CC2)sc2c1CCN(C(=O)OCC)C2	i	0.82	.	.	98	.	.
O=C(O)/C=C/C(=O)Nc1ccc(OC(F)F)cc1	i	0.88	1	.	101	.	.
O=C(N/N=C/c1cn(-c2ccccc2)nc1-c1cccnc1)c1cccnc1	i	0.98	0	.	104	-7	72
CCOc1ccc(NC(=S)Nc2ccccc2C2(C)CC2)cc1	i	1.1	-1	.	106	.	.
CS(=O)(=O)NCCOc1ccc(S(=O)(=O)NCCOc2ccccc2)cc1	i	0.97	1	.	98	.	.
O=C(Nc1ccc(C(=O)N2CCOCC2)cc1)c1cccs1	i	0.77	2	-1.3	102	.	.
CCOC(=O)C1CCN(C(c2cc3cc(C)cc(C)c3[nH]c2=O)c2nnnn2C2CCCCC2)CC1 (configuration not stated)	.	.	-1	-2.5	.	10	92
CCCc1nnc(SCc2ccc(OC)cc2)n1N	i	0.95	0	-0.7	104	44	75
Cc1ccc(C)c(C(=O)OCC(=O)Nc2cccc(S(=O)(=O)NC3=NCCCCC3)c2)c1	i	0.91	-8	.	102	18	122
Continuation:
SMILES	HSV replic up	HSV replic up primary fold	PKD1 kinase inh	GALR2 agonist	RGS16-Gao HTS	Insulin prom inh	Insulin prom inh cell count
COc1ccc(NC(=S)NNC(=O)CCn2cc([N+](=O)[O-])cn2)cc1	i	1.1	4	.	95	88*	50*
O=C(/C=C/c1ccc2c(c1)OCO2)NCc1ccco1	i	0.93	-7	-2.4	99	56	79
c1ccc2c(c1)oc1c(NCCCN3CCOCC3)ncnc12	i	0.92	-23	-2.6	76	.	.
COC(=O)Cn1cnc(=O)c(C#N)c1/C=C/N(C)C	i	1	-5	-0.5	106	.	.
CC(C)c1ccccc1NC(=O)c1ccc(CN(c2ccccc2)S(=O)(=O)c2ccccc2)cc1	i	1	-4	-0.5	100	29	85
COc1ccc(C(=O)C2CCCN(C(=O)CCc3ccccn3)C2)c(C)c1 (configuration not stated)	i	0.96	1	.	110	.	.
O=C(NNC1=C(C(=O)C(F)(F)F)CCC1)c1cccnc1	i	0.93	-3	.	100	.	.
Cc1cc(-n2cnc(-c3cn(C)nc3C)n2)no1	i	1	.	.	103	.	.
c1cc(Nc2cccc3nccnc23)c2nccnc2c1	i	1	1	.	103	10	105
CCOCCCNC(=S)NCCCNc1nc2c(C)c(C)ccc2cc1C#N	i	0.89	-3	.	109	.	.
CCN(CC)NC(=S)Nc1ccccc1	i	0.86	-20	-1.1	115	36	98
O=C(CCc1ccc(S(=O)(=O)N2CCOCC2)cc1)N1CCCC1	i	0.83	-14	-1.5	103	41	112
CCNc1nc(SCCOc2ccc(C)cc2)nc(N(C)C)n1	i	1.2	-13	-1.2	110	.	.
C/C=C(\CS(=O)(=O)c1ccccc1)S(=O)(=O)c1ccccc1	i	0.77	-11	-1.4	80	12	63
CCc1nc2ccccc2c(C(=O)Oc2cccc3cccnc23)c1C	i	0.84	2	-1.1	105	-77	110
Cc1cc(N(C)C)c(C#N)c(=O)[nH]1	i	1	-6	-2.5	106	.	.
Cc1csc(NC(=O)c2ccco2)c1C(=O)c1ccccc1	i	0.98	.	.	103	.	.
O=C(Cc1ccc([N+](=O)[O-])cc1)Nc1ccc2c(c1)OCO2	i	0.86	-3	.	103	-7	81

Structures listed so far that contain an aryl methoxy group (12):
SMILES	HSV replic up	HSV replic up primary fold	PKD1 kinase inh	GALR2 agonist	RGS16-Gao HTS	Insulin prom inh	Insulin prom inh cell count
COc1ccc(CC(=O)N2CCc3cc(OC)c(OC)cc3C2O)cc1OC (configuration not stated)	i	0.75	.	.	103	.	.
COc1ccc(Cn2c(C)c(C)c(C#N)c2NC(=O)Nc2cccc(Cl)c2)cc1	?	.	-1	0.2	105	-19	41
COc1ccc(C(=O)n2nc(C)cc2C)cc1OC	i	1	-4	-2.1	79	-60	128
COc1ccnc(Oc2ccc(C)cc2)c1C#N	i	1.1	-3	-1.6	100	3	90
COc1cc2cc(CN(CCCN3CCOCC3)C(=O)Nc3ccc(F)cc3)c(=O)[nH]c2cc1OC	i	0.96	2	.	108	.	.
COc1cc(C(=O)Nc2ccc(-c3nc4cc(C)ccc4o3)c(O)c2)cc(OC)c1OC	i	0.72	-10	0.0	93	-62	84
COc1ccc(NC(=O)Cn2nc(C(F)(F)F)c3c2CCCC3)cc1OC	i	0.89	-7	-2.1	101	-81	119
COc1cc(/C=N/NC(=O)CCN2CCN(Cc3ccccc3)CC2)cc(OC)c1OC	i	0.99	1	-3.1	101	-42	47
COc1ccc(Cl)cc1N1CC(C(=O)Nc2nccs2)CC1=O (configuration not stated)	i	0.92	-4	-2.9	108	6	124
CCCc1nnc(SCc2ccc(OC)cc2)n1N	i	0.95	0	-0.7	104	44	75
COc1ccc(NC(=S)NNC(=O)CCn2cc([N+](=O)[O-])cn2)cc1	i	1.1	4	.	95	88*	50*
COc1ccc(C(=O)C2CCCN(C(=O)CCc3ccccn3)C2)c(C)c1 (configuration not stated)	i	0.96	1	.	110	.	.
